Assay outcomes as filed in PubChem.
gsp antag: antagonizes gsp, the McCune-Albright syndrome mutation | gsp-mutant cells, cAMP HTRF, 30 min; control for the full effect not named in the record | Potency, µM (top dose mostly 76.9 µM), for inactives: at the highest dose activity change, negative = inhibition, hits mostly inhibitors | hit rate 0.4% among 340,000 | AID 624288; active = falling curve of any shape with a large fitted effect; inconclusive = falling curve, mostly with a smaller effect; inactive = flat or rising curve; cell line not stated here;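 further: intracellular cAMP measured with PDE inhibitor Ro 20-1724 present during compound exposure; potency means the concentration at half of the fitted maximal effect; on the % scale 0 is the no-effect control and ±100 the full control effect; nearly all actives have a fitted effect of over 65% in size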
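Cells, 2000/well, grown 16–24 h in DMEM 10% FBS with 0.5 mg/ml G418, then compounds plus […] (300 uM addition stock), 30 min at 37C. cAMP read by HTRF (cAMP-d2 and anti-cAMP antibody-K in lysis buffer) after 30 min RT.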
D2 PAM: human D2 receptor positive allosteric modulation. P14416. DiscoveRx D2 beta-arrestin cells, luminescence, 90 min; 100% = 57 uM dopamine signal. potentiation, % (no concentration beside the values). hit rate 0.23% among 360,000; active = potentiation of 50% or more; inconclusive = 30% to 50%; inactive = 30% or less;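 further: compound concentration not given in the record; tested on top of an EC20 dose of dopamine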
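PathHunter D2 cells, attached overnight at 37 deg C, received compound in DMSO plus dopamine at EC20 (50 nM final) for 90 min at 37 deg C. Beta-arrestin recruitment was read as luminescence after 1 h with detection reagent at ambient temperature.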
Six1-Eya2 blk: blocks human Six1 binding to Eya2 | Q15475+O00167 | AlphaScreen GST-Six1/His-Eya2 binding, biochemical; stronger effect = lower value; control for the full effect not named in the record | activity change, % (no concentration beside the values) | hit rate 0.56% among 360,000 | AID 651725; in the data active = activity change below about -65%; inconclusive = about -30% to -65%; inactive = above about -30%; further: on the % scale 0 is the no-effect control and ±100 the full control effect; compound concentration not given in the record
Target sequence (O00167 whole entry, looked up): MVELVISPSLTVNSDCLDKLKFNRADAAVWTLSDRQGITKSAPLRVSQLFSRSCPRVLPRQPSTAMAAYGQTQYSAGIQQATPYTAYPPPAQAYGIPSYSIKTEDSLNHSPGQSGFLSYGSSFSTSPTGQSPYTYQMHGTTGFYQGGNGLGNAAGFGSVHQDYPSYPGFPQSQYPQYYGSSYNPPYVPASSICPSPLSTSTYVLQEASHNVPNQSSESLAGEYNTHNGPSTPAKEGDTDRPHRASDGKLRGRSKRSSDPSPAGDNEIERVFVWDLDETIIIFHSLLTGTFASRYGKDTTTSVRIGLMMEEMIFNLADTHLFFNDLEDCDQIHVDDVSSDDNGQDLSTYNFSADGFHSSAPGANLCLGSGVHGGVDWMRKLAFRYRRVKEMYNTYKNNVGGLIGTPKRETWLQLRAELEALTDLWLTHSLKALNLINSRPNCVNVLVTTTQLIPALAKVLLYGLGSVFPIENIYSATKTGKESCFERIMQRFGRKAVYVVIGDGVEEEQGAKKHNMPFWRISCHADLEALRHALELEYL
Target sequence (Q15475 whole entry, looked up): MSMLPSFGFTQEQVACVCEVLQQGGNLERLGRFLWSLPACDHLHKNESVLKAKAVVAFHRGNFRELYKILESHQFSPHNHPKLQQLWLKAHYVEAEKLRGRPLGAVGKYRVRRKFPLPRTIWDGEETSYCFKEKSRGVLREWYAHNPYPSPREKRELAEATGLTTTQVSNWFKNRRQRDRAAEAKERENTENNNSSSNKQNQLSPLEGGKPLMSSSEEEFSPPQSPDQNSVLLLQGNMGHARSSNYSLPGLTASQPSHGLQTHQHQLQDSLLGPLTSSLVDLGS
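AlphaScreen luminescence read after one hour at 37 °C in darkness. Pin-transferred compounds met GST-Six1 and His-Eya2 protein (5X stock 250 nM/500 nM) plus glutathione donor and Ni-chelate acceptor beads (5X, 50 ug/mL).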
D2 agonist: human D2 receptor agonism in beta-arrestin assay | P14416 | DiscoveRx PathHunter D2 beta-arrestin, luminescence, 90 min; 100% = 57 uM dopamine signal | activation, % (concentration not given with the values) | hit rate 0.084% among 360,000; in the data active = activation above about 40%; inconclusive = about 15% to 40%; inactive = below about 15%; further: compound concentration not given in the record; the text of the record calls up to 30% inactive
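DiscoveRx PathHunter D2 beta-arrestin cells (2,100/well) attached overnight, then compound-stimulated 90 min at 37 C in HBSS/10 mM HEPES/0.1% Tween-20 buffer; beta-galactosidase complementation read by luminescence after 1 h at ambient temperature. Dopamine 57 uM final (EC100) as control.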
gsp agonist: activates gsp, the McCune-Albright syndrome mutation | AID 624287 | gsp mutant cells, cAMP HTRF, 30 min; control for the full effect not named in the record | Potency, µM (highest dose often 76.9 µM), for the others: top-dose activation (cAMP increase), hits mostly activators | hit rate 0.13% among 340,000; active = well fitted activation curve with a large enough effect; inconclusive = small, poorly fitted or top-dose-only effect, or another doubt; inactive = no such curve, though single readings can be large or run the other way; cell line not stated here;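 further: phosphodiesterase inhibitor Ro 20-1724 added with compounds to block cAMP breakdown; potency means the concentration at half of the fitted maximal effect; nearly all actives have a fitted effect of over 60% in size; about a fifth of the inactives were tested at one dose only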
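Cells in DMEM/10% FBS with G418 were pretreated with compounds in DMSO plus […] (300 uM stock) for 30 min at 37C. cAMP was measured by HTRF (cAMP-d2 plus anti-cAMP antibody-K) after 30 min at room temperature.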
CtBP-E1A blk: CtBP/E1A binding inhibition; activity change, % (no concentration beside the values); AID 651724; hit rate 0.49% among 340,000; AlphaScreen GST-E1A/His-CtBP binding, 1536-well; stronger effect = lower value; control for the full effect not named in the record; in the data active means activity change below about -65%; inconclusive means about -30% to -65%; inactive means above about -30%; further: on the % scale 0 is the no-effect control and ±100 the full control effect; compound concentration not given in the record
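Steps: dispense buffer (Tris pH 8.0, NaCl 300 mM, TCEP 1 mM, BSA, Tween 20); add 5X protein mix (GST-E1A, His-CtBP, 125 nM each); pin 23 nL compound; 2 h at 37 °C, dark; add 5X beads (50 ug/mL); 1 h; read.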
* marks the source's active call; other numbers are inactive results; ? = inconclusive; / = no result given; [ ] = another dose, or the depositor's remark.

Under each structure: gsp agonist, gsp antag, CtBP-E1A blk, D2 PAM, Six1-Eya2 blk, D2 agonist
- O=C(c1cccc(S(=O)(=O)N2CCCCC2)c1)N1CCN(S(=O)(=O)c2ccc(F)cc2)CC1
  -2%, 2%, 4, -2, -4, -5.6
- Cc1cccc(NC(=O)CC2NCCNC2=O)c1 (stereo not drawn)
  -11%, 2%, 7, -2, -3, -2.8
- CC(Oc1ccc(Cl)cc1)C(=O)N(C)CC(=O)Nc1ccc(N2CCOCC2)cc1 (stereo not drawn)
  13%, 2%, 0, 5, -4, -0.4
- CCOc1cccc(N(C(=O)c2ccco2)C(C(=O)NC2CCCC2)c2cccnc2)c1 (stereo not drawn)
  30%, -7%, 1, 1, 4, -0.1
- O=C(Nc1ccc(F)c(Cl)c1)c1cc(C2CCCCN2C(=O)CCc2ccccc2)on1 (stereo not drawn)
  /, /, -1, -5, -1, -2.2
- CC(=O)Nc1ccc2c(c1)CN(c1cc(C)ccc1C)CO2
  -60%[inhibitor], -7%, -2, 13, -2, 4.9
- COc1ccccc1CN(C)C(=O)c1cc(-c2cc(OC)c(OC)c(OC)c2)nc2ccccc12
  6%[15.4 µM], 12%, 0, 14, 4, ?
- CCC(=O)Nc1ccc(N2CCCCC2)c(C(=O)Nc2ccccc2C)c1
  ?, -20%, -4, -4, 0, 5.4
- CCC1NC(=O)c2cc3ccccc3cc2-n2c1nc1ccc(F)cc1c2=O (stereo not drawn)
  7%, /, 0, 1, 4, -4.6
- CCC(=O)NCCc1nc(-c2ccccc2)no1
  -18%, -2%, /, -8, 8, -3.5
- Cc1ccnc(OC(C(=O)O)C(OCCc2ccccc2)(c2ccccc2)c2ccccc2)n1 (stereo not drawn)
  7%, -1%, 4, -3, 2, -5.9
- COc1ccccc1N1CCN(C2CCCN(C(=O)CCC(=O)N(C)C)C2)CC1 (stereo not drawn)
  -3%[15.4 µM], 7%, 9, -19, -2, 0.4
- COc1ccccc1NC(=O)N(O)C1(C#N)CCCCC1
  5%, 10%, 6, 0, 0, -3.4
- O=C(N/N=C/c1ccccc1O)c1ccc2c(c1)OCO2
  -2%[15.4 µM], 6%, -78*, -5, ?, -6.5
- CC(C)[C@H](NC(=O)c1ccccc1F)C(=O)NC1CCCCCCC1
  8%, 2%, -2, -1, 9, 0.3
- CSCC[C@H](NC(=O)[C@@H]1CSC2c3ccccc3C(=O)N21)C(=O)NC1CCCC1 (stereo partly drawn)
  19%, -17%, 2, -1, -1, -2.0
- COc1ccc(-c2nn(-c3ccccc3)cc2C(N)=O)cc1OC
  ?, 1%, -11, -4, 0, -5.2
- COCC(C)n1c(C)cc(C(=O)COC(=O)CNC(=O)c2ccccc2)c1C (stereo not drawn)
  -16%, 31%[activator], /, -4, -2, -3.0
- CCn1c(SCC(=O)Nc2sc3c(c2C(N)=O)CCC(C)C3)nnc1-c1ccco1 (stereo not drawn)
  -40%, 7%, -21, 0, -1, -1.9
- O=C(Nc1ccccn1)c1ccc2ccccc2n1
  -15%, -6%, 7, -14, 3, -0.4
- C[C@H](NC(=O)c1nc[nH]c1C(=O)NCCCCCNC(=O)OC(C)(C)C)C(=O)OC(C)(C)C
  /, -28%, 1, -1, 1, 3.8
- CC(C)=CC(=O)N1CCC(N2CCC(C(=O)N3CCOCC3)CC2)CC1
  8%, -8%, /, 5, -5, 1.7
- CCN(CC)c1ccc2c(Cl)c(Br)c(=O)oc2c1
  ?, 2%, -7, -29, 16, 0.1
- Cc1ccc(C(=O)Nc2ccc(C(F)(F)F)n(C)c2=O)cc1
  -3%[15.4 µM], 22%, 6, -2, 1, -5.6
- NC(=O)CC(NC(=O)Cc1ccc(Cl)cc1)c1ccc(N2CCC(Cc3ccccc3)CC2)c([N+](=O)[O-])c1 (stereo not drawn)
  -1%, -8%, -11, -4, 3, -1.6
- CC(NC(=O)COc1ccc(Oc2ccccc2)cc1)C(=O)O (stereo not drawn)
  -34%[inhibitor], 7%, 1, -2, 7, -0.4
- CC1CCCCC12NC(=O)N(CC(=O)Nc1ccccc1F)C2=O (stereo not drawn)
  2%, 7%, -1, -15, 4, 5.7
- CC(=O)c1c(C)[nH]c(C(=O)OCC(=O)Nc2c(C)cccc2C)c1C
  30%, -8%, /, -5, -2, 1.5
- COc1ccc(-c2cc(C)nc3nc(N)nn23)cc1
  ?, -6%, -10, -5, -15, -3.6
- O=c1c(Cc2c(F)cccc2Cl)c(O)ccn1CCc1c[nH]c2ccccc12
  19%, -1%, 3, -3, -5, -6.2
- CCOC(=O)c1nn(-c2ccccc2Cl)c(=O)cc1OCC(=O)Nc1cccc(OC)c1
  -10%[15.4 µM], -6%, -4, -19, 10, 2.8
- COc1ccc(N2C(=O)CCC(C(=O)N3CCCCC3)C2c2ccc(OC)c(OC)c2)cc1 (stereo not drawn)
  6%, 7%, -1, -7, 4, 0.6
- CC(C)(C)OC(=O)N1CCC(CC2CC(c3cccc(Br)c3)=NO2)(C(=O)O)CC1 (stereo not drawn)
  /, -9%, 3, -7, -1, -2.9
- O=C(CN1CCCSc2ccccc21)N1CCN(S(=O)(=O)c2cccc(F)c2)CC1
  -6%, -29%, -9, 2, -1, -7.3
- COc1ccccc1N(C)S(=O)(=O)c1ccc(Cl)c(C(=O)N2CCC(C(N)=O)CC2)c1
  2%[15.4 µM], 1%, 3, -6, 11, -3.4
- CCCC(=O)Nc1nc(C)c(C(C)=O)s1
  ?, 13%, 9, -3, -3, 2.8
- CC(=O)OCC#CCSc1nc2ccccc2n1C
  -5%, 17%, 5, -8, -2, -2.1
- CC(=O)Nc1ccc(NC(=O)CSc2nnc(-c3cc(C)[nH]n3)n2N)cc1
  ?, 11%, 2, 1, 1, 0.8
- O=C(O)c1cccc(NC(=O)c2ccc3c(c2)C(=O)N(C2CCCCC2)C3=O)c1
  4%, 0%, -5, -2, -3, -0.4
- CP(=O)(COC(=O)c1ccccc1)COC(=O)c1ccccc1
  -3%, 2%[15.4 µM], 5, -5, 1, -5.1

Shown as a hit in CtBP-E1A blk, of those listed so far:
Under each structure: gsp agonist, gsp antag, CtBP-E1A blk, D2 PAM, Six1-Eya2 blk, D2 agonist
- O=C(N/N=C/c1ccccc1O)c1ccc2c(c1)OCO2
  -2%[15.4 µM], 6%, -78*, -5, ?, -6.5

(further entries)
Under each structure: gsp agonist, gsp antag, CtBP-E1A blk, D2 PAM, Six1-Eya2 blk, D2 agonist
- CC1CC(=Cc2ccc([N+](=O)[O-])cc2)C(=O)O1 (stereo not drawn)
  2%[15.4 µM], 0%, -1, -16, -2, -0.8
- O=C(CN1C(=O)NC2(CCCCC2)C1=O)Nc1ccccc1N1CCCC1
  -4%, -9%, -3, -32, -4, -7.1
- CCn1c(C(=O)O)c(CC(=O)Nc2ccccc2OC)c2ccccc21
  -15%, 7%, 8, 0, 4, 1.6
- Cc1nc2sc(C(c3cccc(F)c3)N3CCOCC3)c(O)n2n1 (stereo not drawn)
  12%, 7%, -2, -1, 0, 0.7
- O=C(CSc1n[nH]c(-c2ccncc2)n1)Nc1ccc(Cl)c(Cl)c1
  19%, -29%, 0, -4, -13, 0.9
- Cc1cccc(C(=O)O/N=C/c2ccc(Br)cc2)c1
  4%[15.4 µM], /, 25, -5, 19, 0.2
- COc1ccc(NC(=O)CN2CCC(NC(=O)C3CCCCC3)CC2)cc1
  -36%[inhibitor], 8%, 1, -6, 2, -0.7
- O=C(NCc1ccc(F)cc1)c1c(O)c2cccc3c2n(c1=O)CCC3
  7%, -3%, 1, -5, 12, -0.7
- Cc1ccnc(N2C(=O)c3ccccc3C2=O)c1
  10%[15.4 µM], 5%, -11, 0, -14, -0.7
- CS(=O)(=O)N1CCc2cc(-c3csc(NC(=O)C(c4ccccc4)c4ccccc4)n3)ccc21
  -38%, 3%, -1, 6, -6, 0.1
- CCCCN1CC(=O)N2[C@H]3c4ccccc4OC[C@@H]3[C@H](C(=O)OCC)[C@]2(C)C1=O
  ?, 4%, 7, -22, 3, -1.9
- O=C(NCC(c1ccco1)N1CCOCC1)c1ccc([N+](=O)[O-])cc1 (stereo not drawn)
  18%, -4%, 8, -3, 6, -2.2
- CCC1=NC(c2ccc(OC)c(OC)c2)N(O)C1(C)C (stereo not drawn)
  -1%, -15%, /, -5, 2, -0.7
- CCOC(=O)c1c(NC(N)=O)nc2n1CCC2
  -34%[inhibitor], 11%, -17, -1, -1, -2.8
- Cc1[nH]n(-c2ccccc2)c(=O)c1CCOC(=O)c1ccc(C(F)(F)F)cc1
  -2%, ?, -5, 20, 4, 4.8
- CCCn1nc(C(=O)NC2CCCC2)c2ccccc2c1=O
  -5%, -13%, /, -4, -2, -1.9
- CC(=O)c1ccc(NC(=O)C(C)OC(=O)c2ccc(Br)o2)cc1 (stereo not drawn)
  15%, -1%, 10, -17, -1, -6.2
- Cc1cc(C(F)F)n2nc(C(=O)Nc3c(F)cc(F)cc3Br)nc2n1
  -4%, -1%, -5, -17, 3, -2.0
- O=C(NNC(=O)c1ccccc1Br)c1ccccc1Cl
  -22%, 5%, -24, -4, 3, 1.0
- CC(C)CNc1ncnc2c1ncn2[C@H]1CN(Cc2cccc3ccccc23)C[C@@H](CO)O1
  /, /, 0, -5, -10, -3.1
- COCc1ccc(C(=O)N(C)CC2CCCN(CCc3ccc(OC)cc3)C2)o1 (stereo not drawn)
  23%, 0%, 3, -22, 2, -3.9
- CCCCC(=O)Nc1cc(C)c2c(=O)oc3ccccc3c2n1
  4%, 11%, 2, ?, -15, 0.2
- Cc1cc2ccccc2c(=O)n1CC(=O)NCC1COc2ccccc2O1 (stereo not drawn)
  -1%, -8%, -6, -2, -1, -1.9
- O=C1CN(c2ccc(F)cc2)C(=S)N1c1ccccc1
  4%[15.4 µM], -18%, 5, -5, 7, 2.5
- CN(Cc1c(F)cccc1Cl)C(=O)CCc1c[nH]c2ccccc12
  21%, ?, 2, 2, 4, 3.6
- COc1cc(CNCc2ccccc2Cl)ccc1OCC(=O)NC1CCCCC1
  -28%, 3%, -1, -15, 0, -2.7
- NS(=O)(=O)c1ccc(CCNC(=O)CN2CCCCC2)cc1
  0%, 7%, 3, -1, 3, -0.8
- CCCC(=O)Nc1cccc(NC(=O)c2ccc3c(c2)OCO3)c1
  19%, -20%, 3, -8, 0, -0.9
- CC(CC1C(C#N)=C(N)OC2=C1C(=O)CCC2)c1ccccc1 (stereo not drawn)
  2%, -19%, -5, -10, -1, -0.1
- COc1ccc(/C=C/C(=O)NCC(=O)N/N=C(/C)c2ccc(Cl)cc2)cc1
  ?, 1%, -9, -17, 3, -0.1
- CCC(Sc1ncnc2sc(C)c(C)c12)C(=O)OC (stereo not drawn)
  9%, -9%, 12, 2, 11, -5.1
- CC(C)[C@H](NC(=O)c1ccco1)C(=O)Nc1ccc(N2CCCCCC2)cc1
  -39%, /, -1, -10, 4, 0.2
- O=C(NNS(=O)(=O)c1ccc(Br)cc1)c1csnn1
  -1%, 1%, -3, -10, 4, -4.1
